Compound activity: PubChem BioAssay, National Center for Advancing Translational Sciences (NCATS)
gsp agonist = activates gsp, the McCune-Albright syndrome mutation. AID 624287. 0.13% of 340,000 active. Potency, µM (series often up to 76.9 µM), for inactives: at the highest dose activation (cAMP increase), most hits filed as activators. gsp mutant cells, cAMP HTRF, 30 min; control for the full effect not named in the record; active = well fitted activation curve with a large enough effect; inconclusive = small, poorly fitted or top-dose-only effect, or another doubt; inactive = no such curve, though single readings can be large or run the other way; cell line not stated here;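 further: phosphodiesterase inhibitor Ro 20-1724 added with compounds to block cAMP breakdown; potency means the concentration at half of the fitted maximal effect; nearly all actives have a fitted effect of over 60% in size; about a fifth of the inactives were tested at one dose only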
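Cells stably selected in G418 were plated at 2000/well, grown 16-24 hr, then given compounds in DMSO with the PDE inhibitor […] (300 uM solution added) for 30 min at 37C; cAMP was read by HTRF.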
gsp antag = gsp mutant antagonism. gsp-mutant cells, cAMP HTRF, 30 min; control for the full effect not named in the record. Potency, µM (titrated, usually from 76.9 µM), without a hit: top-dose activity change, negative = inhibition, actives largely listed as inhibitors. 0.4% of 340,000 active. AID 624288; active = falling curve of any shape with a large fitted effect; inconclusive = falling curve, mostly with a smaller effect; inactive = flat or rising curve; cell line not stated here;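 further: intracellular cAMP measured with PDE inhibitor Ro 20-1724 present during compound exposure; potency means the concentration at half of the fitted maximal effect; on the % scale 0 is the no-effect control and ±100 the full control effect; nearly all actives have a fitted effect of over 65% in size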
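Cells in G418 medium, seeded 16-24 h, 37C; buffer exchange to DPBS + 1 mM CaCl2, 0.5 mM MgCl2, 0.05% BSA; cpds in DMSO + […] (300 uM stock), 30 min 37C; HTRF cAMP detection.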
Menin MLL FP FL = menin-MLL binding inhibition, fluorescein peptide; Fluorescence polarization, fluorescein-MLL peptide displacement from menin; FP activity change, % at 61.4 µM; 290,000 tested, under 10 active; inconclusive = falling polarisation curve, or a change in total fluorescence; inactive = total fluorescence flat and polarisation flat or rising; no compound was filed as active; the % refers to the polarisation; negative = inhibition;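 further: % of control where 0% means no effect; inhibitors lower the polarisation; unlabelled MLL peptide was the positive control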
ClpP mod = qHTS Assay for Activators of ClpP | purified B. subtilis ClpP, FRET peptide cleavage, 20 min | Potency, µM (titrated, usually from 57.5 µM), for the others: at the highest dose activity change, negative = active | ATP-dependent Clp protease proteolytic subunit (Bacillus subtilis (strain 168)), P80244 | 1.9% of 340,000 active; active = well fitted falling curve with a large enough effect; inconclusive = small, poorly fitted or top-dose-only effect; inactive = no such curve, though single readings can be large or run the other way; further: potency means the concentration at half of the fitted maximal effect; the source files actives as falling curves though it sought activators and does not explain the sign; nearly all actives have a fitted effect of over 65% in size; many hits overshoot -100%
Target sequence (P80244 whole entry, looked up): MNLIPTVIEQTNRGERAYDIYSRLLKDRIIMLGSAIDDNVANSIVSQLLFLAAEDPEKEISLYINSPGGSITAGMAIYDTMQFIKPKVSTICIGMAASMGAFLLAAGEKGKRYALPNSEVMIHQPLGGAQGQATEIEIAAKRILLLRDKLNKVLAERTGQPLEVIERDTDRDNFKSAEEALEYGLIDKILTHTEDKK
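Purified B. subtilis ClpP, 10 microg/mL final in Tris/HCl pH8 with KCl, BSA, glycerol and Tween-20, cleaved an Abz/nitrotyrosine-quenched decapeptide. Fluorescence (ex 320, em 430) was read at 0 and 20 min at room temperature. Delta was normalized to 5.8 microM ADEP and DMSO/no-enzyme controls.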
TRPV1 PAM = potentiators of human vanilloid receptor 1 (TRPV1); Q8NER1; TRPV1-expressing cells, Fluo-8 calcium influx, capsaicin EC20 potentiation; host cell line not named in the record; control for the full effect not named in the record; potentiation, % at 8.33 µM; 0.02% of 320,000 active; AID 540277; active means potentiation above 80%; inconclusive means 30% to 80%; inactive means below 30%; further: 0% is about no effect
Target sequence (Q8NER1 whole entry, looked up): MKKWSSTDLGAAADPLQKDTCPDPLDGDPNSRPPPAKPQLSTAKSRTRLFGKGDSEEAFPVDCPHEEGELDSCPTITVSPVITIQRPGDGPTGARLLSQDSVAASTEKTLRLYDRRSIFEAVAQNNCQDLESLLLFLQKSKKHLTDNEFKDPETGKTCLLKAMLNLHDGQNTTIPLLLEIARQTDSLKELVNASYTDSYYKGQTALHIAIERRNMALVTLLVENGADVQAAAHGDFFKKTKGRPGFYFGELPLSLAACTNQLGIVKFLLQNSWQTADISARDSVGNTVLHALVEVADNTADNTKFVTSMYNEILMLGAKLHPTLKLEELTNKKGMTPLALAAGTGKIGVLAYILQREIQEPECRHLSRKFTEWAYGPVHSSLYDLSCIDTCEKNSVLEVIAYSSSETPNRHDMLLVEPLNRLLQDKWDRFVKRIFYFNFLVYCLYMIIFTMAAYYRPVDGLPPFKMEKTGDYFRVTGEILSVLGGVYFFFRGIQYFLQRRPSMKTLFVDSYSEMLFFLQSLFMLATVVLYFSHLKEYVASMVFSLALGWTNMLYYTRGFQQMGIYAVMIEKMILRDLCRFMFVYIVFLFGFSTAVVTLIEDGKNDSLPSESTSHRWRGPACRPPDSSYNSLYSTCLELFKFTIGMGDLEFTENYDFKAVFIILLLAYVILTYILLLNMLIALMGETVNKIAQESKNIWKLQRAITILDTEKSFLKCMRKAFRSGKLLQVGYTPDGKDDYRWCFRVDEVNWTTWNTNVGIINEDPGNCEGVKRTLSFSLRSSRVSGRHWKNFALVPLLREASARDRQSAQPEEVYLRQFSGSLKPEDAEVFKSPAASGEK
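TRPV1-expressing cells were cultured overnight at 35.5C and loaded with Fluo-8 calcium dye for 40 to 90 min at room temperature. After a 10 s baseline, compound was added and calcium influx was read kinetically for 3 min (ex 480/em 520 nm).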
Sfp inh = inhibitors of Bacillus subtilis Sfp phosphopantetheinyl transferase; Biochemical Sfp PPTase activity, qHTS; Potency, µM, for inactives: max response, negative = inhibition, usual class: inhibitors; 3.5% of 310,000 active; AID 1490; active means well fitted inhibition curve with a large enough effect; inconclusive means small, poorly fitted or top-dose-only effect, or another doubt; inactive means no such curve, though single readings can be large or run the other way;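 further: the enzyme is Sfp with the accession as filed and its product quenches rhodamine fluorescence; potency means the concentration at half of the fitted maximal effect; 0% = enzyme reaction without inhibitor and -100% = no enzyme wells; top concentration of the series not given in the record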
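Sfp 15 nM + cpd, 15 min RT; start w/ rhodamine-CoA 5 uM, BHQ-2-YbbR 12.5 uM (final); 50 mM Hepes pH 7.6, 10 mM MgCl2, 0.01% NP-40, 0.01% BSA; read 525/598 nm at 0 and 30 min.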
TRPML1 blocker = blocks the human TRPML1 channel; Q9GZU1; TRPML1-inducible cells, Ca2+ dye fluorescence, FDSS; hits give low values; inhibition of EC80 agonist-evoked calcium signal; activity change, negative = inhibition, % (concentration not given with the values); 0.02% of 390,000 active; in the data active means activity change below about -50%; inconclusive means about -30% to -50%; inactive means above about -30%;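 further: stimulus is agonist 54-4 at its EC80 concentration; on the % scale 0 is the no-effect control and ±100 the full control effect; compound concentration not given in the record; the text of the record puts the active cut at -80%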
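Calcium fluorescence in TRPML1-DL cells induced overnight with Tet: a 110 s read after compound pin addition, then a 110 s antagonist read after challenge with 54-4 at 4 uM final (EC80).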
Active calls of the source: *; ? = inconclusive; . = no result given; & = joins results of further samples; [ ] = remark or other dose. This is a random part of the collection; overall some 4.9% were active at least once.

SMILES	gsp agonist	gsp antag	Menin MLL FP FL	ClpP mod	TRPV1 PAM	Sfp inh	TRPML1 blocker
COc1ccc(Cl)cc1NC(=O)c1nnn(CC(=O)Nc2ccc(C)c(C)c2)c1N	0%	0%	0.0	-17%	6	-9%	4
COc1cccc(CN(C)CC(=O)Nc2ccccc2C(=O)NC2CC2)c1	-11%	8%	.	1.8%	-8	.	2
O=C1NC[C@H](CC2CCCCC2)N(CCc2cccc(F)c2)C1=O	.	10%	.	-2.9%	19	.	-8
Cc1cccc(C2NC(c3cccc(C)c3)C([N+](=O)[O-])C(C)(C)C2[N+](=O)[O-])c1 (centres undefined)	0%	-1%	7.4	-8.2%	?	10%	1
CN(C)CCn1c(=S)[nH]c2ccccc2c1=O	-21%	5%	8.0	-1.0%	-8	?	0
O=S(=O)(NCCSc1ccccc1)c1ccc(F)cc1	-3%	-2%	-2.2	-1.1%	2	-3%	15
CC(C)CCNC(=O)CCS(=O)(=O)c1cccc2nonc12	-11%	10%	4.9	0.3%	-3	11%	2
CCC(=O)Nc1ccc(C(=O)N2CCN(C(=O)c3ccco3)CC2)cc1	10%	7%	2.0	.	8	2%	-5
CCOc1ccccc1Nc1nnc(SCC(=O)Nc2nc(-c3ccc(OC)cc3)cs2)s1	?	-5%	5.8	-3.0%	19	8%	2
O=C(Nc1cccc(F)c1)Nc1ccnn1C1CCN(C(=O)c2ccccn2)CC1	-24%	13%	.	-8.1%	1	7%	-1
O=C(C1CCCN(S(=O)(=O)c2ccc(F)cc2)C1)N1CCCCCC1 (centres undefined)	-45%	5%	.	0.7%	1	14%	-6
Cc1ccc(S(=O)(=O)N2CCC(C(=O)Nc3ccccc3N3CCCCC3)CC2)cc1C	-3%[15.4 µM]	-11%	.	1.5%	-3	.	-13
O=S(=O)(CC(CN1CCOCC1)N1CCOCC1)c1ccccc1 (centres undefined)	?	9%	0.5	0.2%	-1	17%	-1
O=CNC(=O)c1ccccc1C(=O)O	2%	-9%	2.4	0.7%	1	21%	8
Cc1cccc(NC(=O)NC2(C)CCS(=O)(=O)C2)c1 (centres undefined)	-2%[15.4 µM]	-1%	-2.1	.	?	14%	15
Cc1cccc(OCCC(=O)OCC(=O)N2c3ccccc3NC(=O)C2(C)C)c1	5%	.	.	1.3%	.	.	-1
COCCNC(=O)C(c1ccco1)N(C(=O)Cn1nnc2ccccc21)c1ccccc1C (centres undefined)	-8%	6%	-0.6	-1.8%	-12	14%	5
CCCCNC(=O)Nc1c(C(=O)OC)[nH]c2ccc(C)cc12	-5%	6%	0.9	-20%	-8	10%	12
Cc1cc(C)[n+]2n1C(=O)C(c1ccccc1)=C2[O-]	-24%	7%&8%	1.2&2.2	-2.2%&-0.5%	-29&-1	2%&0%	-15&-3
CC(=O)Nc1ccc(S(=O)(=O)NNC(=O)C2CCCCC2)cc1	31%	6%	.	-1.4%	12	7%	23
COc1cc(C(=O)Nc2ccc(C)cn2)c([N+](=O)[O-])cc1OC	-6%[15.4 µM]	2%	-9.7	-0.4%	0	14%	-3
CCOC(=O)c1cn[nH]c1C(F)(F)F	-9%[15.4 µM]	3%	-0.5	.	-1	25%	9
Cc1ccc(C)n1-c1ccc(-c2ccn[nH]2)cc1	10%[15.4 µM]	0%	13	.	?	17%	15
CN(Cc1cccnc1)C(=O)CNC(=O)c1ccc(Cl)cc1Cl	-7%[15.4 µM]	.	1.9	.	-3	20%	-1
Cc1cccc(C(=O)NC(=S)Nc2cccc3nc(C)ccc23)c1	-8%	-28%	0.3	1.4%	-8	-14%	38
O=C(CNCc1cccs1)Nc1ccc(S(=O)(=O)N2CCCCC2)cc1	4%	-4%	-2.1	.	-5	-19%	18
O=C(CN(Cc1ccccc1)C(=O)CNS(=O)(=O)c1ccc(F)cc1)NCC1CCCO1 (centres undefined)	-7%[15.4 µM]	-11%	.	.	1	16%	0
CCOc1ccc(NC(=O)Cn2nnc(C(=O)NCc3ccc4c(c3)OCO4)c2N)cc1	24%	10%	-2.1	0.6%	13	7%	12
CCOc1ccccc1N(C(=O)c1snc(C(N)=O)c1N)C(C(=O)NC1CCCC1)c1cccs1 (centres undefined)	-16%[15.4 µM]	.	-0.4	.	9	13%	7
COc1ccc(/C=C(\NC(=O)c2ccccc2)C(=O)NCCN2CCOCC2)cc1OC	4%[15.4 µM]	3%	-9.2	.	-2	7%	-4
CC(C)(CO)CNC(=O)CC1C(=O)NCCN1CC(c1ccccc1)c1ccccc1 (centres undefined)	-11%	1%	-14	-7.1%	-11	8%	-6
CCc1ccc(N(C(=O)c2snc(C(N)=O)c2N)C(C(=O)NC2CCCC2)c2ccco2)cc1 (centres undefined)	-29%	-18%	1.2	.	-9	14%	-14
Cc1ccc(C(=O)Oc2cc(C)[nH]c(=O)c2[N+](=O)[O-])cc1	22%	9%	-4.4	.	-12	-30%	10
O=C(NCCS(=O)(=O)N1CCN(c2cccc(Cl)c2)CC1)c1ccc2c(c1)OCO2	-10%[15.4 µM]	-1%	.	-1.7%	-3	.	25
CN(CC(=O)Nc1cccc(F)c1)C(=O)c1cccnc1Sc1ccc(Cl)cc1	11%	-17%	.	-1.0%	9	.	35
O=c1c(Cc2ccc(F)cc2)c(O)ccn1Cc1ccc(F)cc1	2%	-4%	2.4	-0.6%	-15	6%	-6
COc1ccc(-c2csc(NC(=O)CSc3ncn[nH]3)n2)cc1OC	-8%[15.4 µM]	0%	-2.4	-0.1%	-13	-3%	-1
Cc1n[nH]c(=O)c2c(NC(=O)CSc3nc4ccccc4c(=O)n3C(C)C)oc(C)c12	-10%[15.4 µM]	15%	.	.	8	13%	1
CCOC(=O)c1ccc(NC(=O)c2ccccc2[N+](=O)[O-])cc1	3%	-14%	1.7	-0.4%	-4	-4%	-4
COc1cccc(NC(=O)Cn2nc(Cc3cccnc3)c3ccccc3c2=O)c1	16%	5%	0.5	-4.3%	2	-7%	40
CCN(CC#CCC1(O)c2ccccc2-c2ccccc21)C(C)C	23%	-5%	1.9	-1.6%	-5	-3%	13
CCN1Cc2cc(OC)ccc2-c2ccccc2S1(=O)=O	.	5%	.	5.1%	.	.	-13
CSc1ccccc1NC(=O)COC(=O)Cc1cccs1	-5%[15.4 µM]	5%	1.5	.	3	6%	21
CC1=NN(c2ccccc2)C(=O)/C1=C/c1cccc(C)c1	-6%[15.4 µM]	-15%	?	.	-12	-6%	44
O=S(=O)(Nc1ccc2ccccc2n1)c1ccc2c(c1)CCO2	-7%	-5%	-1.1	-15%	4	1%	-11
Cc1ccc(S(=O)(=O)NCCC(=O)NCc2ccco2)cc1	10%	14%	3.2	0.6%	6	15%	-13
S=C(NCc1cccs1)NCC1CCCO1 (centres undefined)	-4%[15.4 µM]	-6%	-1.6	-13%	4	-10%	3
CC1CCCCN1C(=O)COC(=O)c1ccc2ccccc2n1 (centres undefined)	9%	4%	.	-3.5%	0	.	-3
CN(C)c1ccc(N=Nc2ccccc2C(=O)OCC(=O)Nc2ccccc2C(F)(F)F)cc1	3%	-23%	2.6	.	6	-4%	11
C/C(=N\N1CCN(Cc2ccc(C)cc2)CC1)c1ccco1	8%	0%	-2.7	-1.8%	25	4%	9
COc1cccc(COC(=O)c2sc3nc4n(c(=O)c3c2C)CCC4)c1OC	13%	13%	.	12%	?	.	-14
Cc1ccc(N2C(=O)N3[C@@H]4c5ccccc5OC[C@@H]4[C@@H](c4ccccc4)[C@@]3(C)C2=O)cc1	-10%	-14%	.	-2.7%	.	.	15
Cc1ccc(S(=O)(=O)NCCSc2nnc(N)s2)cc1	-6%	6%	3.6	2.3%	0	-26%	-10
Cc1nn(CC(=O)NCCN2CCOCC2)c(=O)c2cc3sccc3n12	16%	5%	.	-6.4%	-3	8%	-14
COc1ccccc1CN1C[C@@H]2C[C@@H](c3ccc(C)cc3)N3CCC[C@@]23C1=O	0%[15.4 µM]	-11%	0.0	.	4	-4%	11
CCOC(=O)CNC(=O)Cn1cnc2ccc(S(=O)(=O)N3CCC(C)CC3)cc2c1=O	?	3%	2.5	-0.1%	0	9%	-2
Cc1nc2sccn2c(=O)c1S(=O)(=O)NCC1CCN(Cc2ccccc2Cl)CC1	-7%	3%	0.3	-26%	-11	10%	-11
COc1ccc(NC(=S)NNc2ccc([N+](=O)[O-])cc2S(=O)(=O)Nc2ccc(C)cc2C)cc1	-16%[15.4 µM]	-34%	11	0.1%	4	40µM*	7
O=C(N/N=C/c1cccc(O)c1)c1ccccc1O	?	-16%	3.3	0.9%	-4	15%	.
COc1cccc(NC(=O)CN(C)C(=O)c2ccccc2Sc2ccccc2C#N)c1	2%	-11%	.	0.9%	0	.	-16

Further records
SMILES	gsp agonist	gsp antag	Menin MLL FP FL	ClpP mod	TRPV1 PAM	Sfp inh	TRPML1 blocker
COc1cccc(CC(=O)Nc2ccc3c(c2)OC2(CCCC2)O3)c1	3%	-7%	.	-1.2%	4	.	-14
COC(=O)[C@H](CC(C)C)NC(=O)Nc1ccc(F)cc1	23%[15.4 µM]	-1%	3.9	.	.	20%	-10
CCOC(=O)Cc1csc(NC(=O)CN2C(=O)c3ccccc3S2(=O)=O)n1	-58%[inhibitor]	-10%	0.6	0.8%	12	-1%	8
COC(CN(C(=O)CCl)C(C(=O)NC1CCCCC1)c1ccccc1C)OC (centres undefined)	0%[15.4 µM]	10%	2.6	1.6%	11	2%	5
N/N=C1\CCCc2nonc21	14%	13%	-1.6	1.2%	-4	2%	-9
Cc1cccc(NC(=O)c2cccc(C(F)(F)F)c2)c1	-12%	-6%	-6.4	-2.8%	-10	19%	-7

Record cards (already shown). Screens in order: gsp agonist, gsp antag, Menin MLL FP FL, ClpP mod, TRPV1 PAM, Sfp inh, TRPML1 blocker
CCOC(=O)Cc1csc(NC(=O)CN2C(=O)c3ccccc3S2(=O)=O)n1 across the screens: -58%[inhibitor], -10%, 0.6, 0.8%, 12, -1%, 8
COc1cccc(CC(=O)Nc2ccc3c(c2)OC2(CCCC2)O3)c1 across the screens: 3%, -7%, ., -1.2%, 4, ., -14
